VACV mCherry inh – qHTS for Stage-Specific Inhibitors of Vaccinia Orthopoxvirus: mCherry Reporter Primary qHTS | actives 0.63% (n = 310,000) | Vaccinia virus mCherry reporter infection, fluorescence; about a quarter of the inactives have no number | Potency, µM (doses to about 36.5 µM), inactives show top-dose activity change, negative = inhibition, most hits filed as inhibitors; active = well fitted inhibition curve with a large enough effect; inconclusive = small, poorly fitted or top-dose-only effect; inactive = no such curve, though single readings can be large or run the other way; tested in A549 cells; note: nearly all actives have a fitted effect of over 35% in size; inactives centre near -10
Vaccinia Venus – qHTS for Stage-Specific Inhibitors of Vaccinia Orthopoxvirus: Venus Reporter Primary qHTS; Vaccinia virus Venus reporter expression, fluorescence; AID 720580, 2013; Potency, µM (highest dose often 36.5 µM), for inactives: at the highest dose activity change, negative = inhibition, hits mostly inhibitors; actives 0.46% (n = 330,000); active means well fitted inhibition curve with a large enough effect; inconclusive means small, poorly fitted or top-dose-only effect; inactive means no such curve, though single readings can be large or run the other way; tested in A549 cells; note: nearly all actives have a fitted effect of over 30% in size; inactives centre near -10
Starred values were filed as active, the others as inactive; i = inactive; ? = inconclusive; . = not tested or not shown; & = joins results of further samples; [ ] = another dose, or the depositor's remark. % is set by controls: 0 for no effect and ±100 for the full control effect; potency is the fitted concentration of half-maximal effect.

SMILES	VACV mCherry inh	Vaccinia Venus
Cc1c(Cl)cccc1NC(=O)CCN1C(=O)NC(C)(C)C1=O	-12%	-3%
CC(C)N1CC=C(c2c[nH]c3ccccc23)CC1	.	?
COc1cc(C=C2C(=O)c3ccccc3C2=O)cc(OC)c1OC	-5%	17%
O=C(Cc1ccccc1)NC(=S)Nc1cccc(C(F)(F)F)c1	.	-23%
Cc1nc2c(C(=O)NCCc3ccc(Cl)cc3)c[nH]n2c(=O)c1Cc1ccc(Cl)cc1	-17%[7.34 µM]	-13%[7.34 µM]
O=C(CN1CCOCC1)NNC(=S)Nc1ccccc1	i	-7%
CCN(CC)CCNC(=O)c1nn(-c2ccc(Cl)cc2)c2c1CCc1cc(OC)ccc1-2	?	13µM*
O=C1C=C(c2cc3ccccc3o2)C[C@@H](c2ccc(F)cc2)C1	i	-13%
CCOc1ccc(OCC)c(NC(=O)CNS(=O)(=O)c2cccs2)c1	i	-19%
CCCCc1cc(=O)oc2cc(OCC(=O)N(CC)CC)c(Cl)cc12	i	-13%
CC1(C)CC(C)(c2ccc(O)cc2O)N(c2ccc3ccccc3c2)C(=S)N1 (stereo not drawn)	.	?
COc1cccc(CNCCc2c[nH]c3ccccc23)c1	?	-10%
COc1ccccc1C(=O)N[C@@H]1c2ccccc2C2(CCN(Cc3nc(C(C)C)cs3)CC2)[C@H]1O	?	?
CCOc1ccc(C(=O)NC(=S)Nc2cccc(NC(=O)c3ccco3)c2)cc1[N+](=O)[O-]	-10%	-22%
COc1cccc(Nc2nc3ccc(C(=O)c4ccccc4)cc3n3c(C)nnc23)c1	-22%	-22%
COc1cccc(-c2cc3nc(C)c(C)c(N4CCN(C(=O)c5ccoc5)CC4)n3n2)c1	-17%	?
Cc1ccc(C(C)C)cc1OCCOCCN1CCCC1	-19%	-10%
Cc1ccccc1CN1C(=O)CSCC1(C)C(=O)NC(C)C (stereo not drawn)	-15%	13%
Cc1ccc(-n2ncc(C(=O)NCc3ccccc3C)c2-n2cccc2)cc1	-14%	-16%
CCOc1cc(C(=O)Nc2c(NC)c3ccccc3oc2=O)cc(OCC)c1OCC	-3%	2%
Cc1ccc(C(=O)n2c3ccccc3c3ccccc32)cc1	.	?
CC(=O)c1cc(-c2ccc(F)cc2)n(CCC(=O)NCc2ccccc2C)c1C	4%	4%
O=C(NCC(c1ccco1)N1CCc2ccccc2C1)C(=O)Nc1ccccc1F (stereo not drawn)	i	-11%
Cc1c(Cl)cccc1NC(=O)NCc1cccnc1	-9%	-1%
CCCCCCCOC(=O)c1ccc(OC(=O)c2cccnc2)cc1	-2%	-9%
O=C(NCCO)c1ccc2[nH]c3ccccc3c2c1	.	-27%
NC(=O)c1sc2cc(C(F)(F)F)cnc2c1-c1ccccc1	i	-14%
CCCOc1ccc(CSc2n[nH]c(C)n2)cc1	i	-10%
COC(=O)NC(NC(=S)Nc1cccc(C)c1)C(Cl)(Cl)Cl (stereo not drawn)	-17%	-7%
CCc1ccc(-c2csc(-c3c[nH]c4ccccc34)n2)cc1	-14%	-26%
COC(=O)[C@@]1(Cc2ccc(F)cc2)[C@H]2c3cc(C(=O)N(C)C)n(Cc4c(CO)[nH]cc(C)c4=O)c3C[C@H]2CN1C(=O)c1ccccc1	i	-11%
CCOc1ccc(N(CC(=O)NCc2ccc(C)cc2)S(=O)(=O)c2c(C)[nH]c(=O)[nH]c2=O)cc1	-10%	0%
COc1ccc(/C=C/c2nc(-c3ccccc3O)n(-c3ccccc3)n2)cc1	-3%	-18%
CC(=O)N1CCN(c2ccc(NC(=O)c3ccccc3)cc2)CC1	-9%	-1%
COc1ccc(OC)c(-n2c(=S)[nH]c3cc(C(=O)N4CCN(c5ccccc5)CC4)ccc3c2=O)c1	-7%	-15%
Cc1cc(=O)[nH]c(N/N=C/c2ccccc2C(F)(F)F)n1	-11%	-4%
O=C(NC1CCCC1)C1c2ccccc2C(=O)N1CCCN1CCOCC1 (stereo not drawn)	i	-3%
Cc1c(NC(=O)C(F)(F)F)ccc2nc3c(=O)n(C)c(=O)n(C)c3nc12	-5%	38%[activator]
CCOc1ccc2nc(C)cc(Nc3ccccc3OCC)c2c1	-23%	-15%
CC(C)[C@H]1COCCS(=O)(=O)N1Cc1ccccc1	-10%	-6%&29%
O=C(Cc1ccc(NC(=O)C2CCN(C(=O)C3CCC3)CC2)cc1)Nc1cccc(C(=O)N2CCCC2)c1	-19%	-12%
C[C@H](CO)N1C[C@H](C)[C@H](CN(C)C(=O)Nc2ccnc(N3CCOCC3)c2)OCc2cnnn2CCCC1=O	-9%	-9%
Cc1c2c(nc3c(C(=O)NC4CC4)cnn13)CCCC2	?	-21%
O=C(Cn1cc(C(=O)c2ccccc2F)c2ccccc21)NCc1ccco1	-23%	-11%
CCOc1ccc(N(Cc2ccc(C(=O)O)cc2)S(=O)(=O)c2ccc(C)cc2)cc1	?	-20%
CN(C)CCNC(=O)C1CCN(Cc2cc3ccccc3n2Cc2ccccc2)CC1	-9%	-10%
CCOC(=O)c1cc2c(=O)n3ccccc3nc2n(Cc2ccco2)c1=NC(=O)c1cccc(OC)c1	-24%	-24%
Cc1cc(/C=C2\C(=O)NC(=O)N(c3ccccc3F)C2=O)c(C)n1-c1cc(C(=O)O)cc(C(=O)O)c1	i	-21%

3 structures already listed, sorted by number of heavy atoms, smallest number first:
SMILES	VACV mCherry inh	Vaccinia Venus
CCOc1ccc2nc(C)cc(Nc3ccccc3OCC)c2c1	-23%	-15%
O=C(NC1CCCC1)C1c2ccccc2C(=O)N1CCCN1CCOCC1 (stereo not drawn)	i	-3%
O=C(Cn1cc(C(=O)c2ccccc2F)c2ccccc21)NCc1ccco1	-23%	-11%

Next part:
SMILES	VACV mCherry inh	Vaccinia Venus
CCOC(=O)C1CCN(C(=O)CSCCSCC(=O)N2CCC(C(=O)OCC)CC2)CC1	.	-11%
Cc1ccc(S(=O)(=O)Nc2cccc(-c3cn4ccsc4n3)c2)cc1	.	?
CCOc1ccc(S(=O)(=O)N(C)C2CCCCC2)cc1	-25%	1%
CCC(C)NC(=O)CC(c1ccccc1)c1cc(C)ccc1O (stereo not drawn)	-11%	-1%
Cc1cc(OCCN2CCCC2)ccc1C(C)C	.	-5%
Nc1nonc1C(=O)NCCNS(=O)(=O)c1ccc(Br)cc1	-18%	-9%
CCCNCC1C(Oc2ccc(Cl)cc2Cl)C(=O)N1c1cccc(C)c1C (stereo not drawn)	?	?
Cc1c2ccccc2cc[n+]1C	-5%	2%
Cc1cccc(Cc2nnc(CCC(=O)N(C)C3CCOC3)o2)c1 (stereo not drawn)	i	-6%
COc1ccc(Cc2c(O)nc(SCC(=O)c3ccc(OC)cc3)[nH]c2=O)cc1	-10%	-6%
O=C(Nc1ccccc1C(=O)O)c1cccc(NC(=O)c2ccco2)c1	i	3%
Cc1cccc(C)c1NC(=O)Cn1c(SCC(=O)NCc2ccccc2)nc2ccccc21	-14%	-2%
COc1ccc(C2=NN(CCC(=O)NCc3ccc4c(c3)OCO4)C(=O)CC2)cc1	-14%	-17%
Cc1ccc(-c2csc(N)n2)cc1	11µM*	?
CC(C)CCNC(=O)CN(Cc1ccc2c(c1)OCO2)C(=O)CCC(=O)Nc1ccccn1	.	3%
COc1cccc(CN(C)C(=O)C23CC4CC(CC(C4)C2)C3)c1	-1%	0%
NNC(=O)CNc1cccc(Br)c1	-2%	-28%
CCN(c1ccccc1)S(=O)(=O)c1cc2c3c(c1)C(C)C(=O)N3CCC2 (stereo not drawn)	-9%	-23%
O=C(Nc1ccc([N+](=O)[O-])cc1)Nc1ccon1	-6%	-13%
CCc1nc2ccc(C(=O)NC3CCN(Cc4ccccc4)CC3)cn2c1N(C)Cc1cc2ccccc2s1	-16%	-19%
O=C(CSc1ccc([N+](=O)[O-])cc1)Nc1cccc(S(=O)(=O)Nc2ccccc2F)c1	-3%	-10%
COc1ccc(NCc2nnc(SCC(=O)Nc3cccc(C)c3)o2)cc1	-23%	-15%
Cc1[nH]nc2oc(=O)c(CCO)c(C)c12	-6%	-20%
O=C(Cc1ccc2c(c1)OCCO2)Nc1cc(C(F)(F)F)ccc1N1CCOCC1	-10%	-16%

Another view of four compounds above:
> CC(C)CCNC(=O)CN(Cc1ccc2c(c1)OCO2)C(=O)CCC(=O)Nc1ccccn1
- VACV mCherry inh: .
- Vaccinia Venus: 3%

> COc1cccc(CN(C)C(=O)C23CC4CC(CC(C4)C2)C3)c1
- VACV mCherry inh: -1%
- Vaccinia Venus: 0%

> NNC(=O)CNc1cccc(Br)c1
- VACV mCherry inh: -2%
- Vaccinia Venus: -28%

> CCN(c1ccccc1)S(=O)(=O)c1cc2c3c(c1)C(C)C(=O)N3CCC2 (stereo not drawn)
- VACV mCherry inh: -9%
- Vaccinia Venus: -23%

Going on with the list.
SMILES	VACV mCherry inh	Vaccinia Venus
c1ccc2c(CCNC3=NCCC3)c[nH]c2c1	-16%	0%
Cc1cc(C)n(C(C)CNS(=O)(=O)c2ccc(Cl)cc2)n1 (stereo not drawn)	-3%	0%
Cc1ccc(C(O)C(=O)c2ccco2)cc1 (stereo not drawn)	i	-8%
COc1ccc(-c2noc(-c3ccc(N4CCN(c5ccccc5)CC4)c([N+](=O)[O-])c3)n2)cc1	-4%	-10%
Cc1ccc(-c2nc(=S)c3c(n2CCN2CCOCC2)CC(C)(C)OC3)cc1	.	11%
C=CCNC(=S)Nc1ccccc1-c1nnc2n1CCCCC2	0%	6%
CC1=C(c2ccc(F)cc2)S(=O)(=O)N=C1N1CCC(C(=O)NCCc2ccccc2)CC1	-4%	-6%
Fc1cccc(C2CC(c3cccc(Br)c3)Nc3nnnn32)c1 (stereo not drawn)	-15%[1.46 µM]	?
O=C(c1ccc2c(c1)N(Cc1cccc(Cl)c1)C(=O)c1ccccc1S2(=O)=O)N1CCC(Cc2ccccc2)CC1	-6%	-14%
Cc1ccc(NC(=O)Cn2c(CCC(=O)O)ccc2-c2cccs2)cc1	-3%&-10%	-3%&-1%
CCOC(=O)NC1(C(F)(F)F)N=C(c2ccccc2)NC1=O (stereo not drawn)	.	-1%
Cc1nnc(N2C(=O)c3oc4ccccc4c(=O)c3C2c2cccc(OCCC(C)C)c2)s1 (stereo not drawn)	-12%	-3%
COc1ccc(C2C(C#N)=C(N)N(Nc3ccccc3)C3=C2C(=O)CC(C)(C)C3)cc1C (stereo not drawn)	17%	8%
C=C1CCN([C@H](C(=O)NCc2ccc(OC)cc2)C(C)C)S(=O)(=O)c2ccccc21	i	1%
COc1ccc(N2CCN(C(CNC(=O)C(=O)NCc3cccnc3)c3cccnc3)CC2)cc1 (stereo not drawn)	-5%	-8%
CNc1ccc(C=O)cc1I	-11%	-10%
Cc1ccc(C(=O)Nc2ccc(C(=O)N3CCCCC3C)cc2)cc1 (stereo not drawn)	-13%	-12%
Cc1ccc(S(=O)(=O)N2CCC(c3nnc(SCCN4CCCC4)n3C)CC2)cc1	-18%	-13%
CCn1c(Cc2ccc(OC)cc2)nnc1SCC(=O)Nc1nc2ccccc2s1	.	?
O=C(Nc1ncc(S(=O)(=O)c2ccc([N+](=O)[O-])cc2)s1)c1ccccc1F	-8%[7.34 µM]	2%[7.34 µM]
CC(=O)N[C@H]1[C@H]([C@H](O)[C@H](O)CO)OC(C(=O)O)=C[C@@H]1O	i	-7%
COc1ccc(NC(=O)c2ccc(Cn3cc(Cl)cn3)cc2)cc1	i	-24%
CCCOC(=O)Nc1nc(-c2ccc(C)cc2)c(C)s1	i	-7%
CN1CCN(C(=O)/C=C/c2ccccc2)CC1	i	-7%

Structures from the list above that have a COOH group:
SMILES	VACV mCherry inh	Vaccinia Venus
CCOc1ccc(N(Cc2ccc(C(=O)O)cc2)S(=O)(=O)c2ccc(C)cc2)cc1	?	-20%
Cc1cc(/C=C2\C(=O)NC(=O)N(c3ccccc3F)C2=O)c(C)n1-c1cc(C(=O)O)cc(C(=O)O)c1	i	-21%
O=C(Nc1ccccc1C(=O)O)c1cccc(NC(=O)c2ccco2)c1	i	3%
Cc1ccc(NC(=O)Cn2c(CCC(=O)O)ccc2-c2cccs2)cc1	-3%&-10%	-3%&-1%
CC(=O)N[C@H]1[C@H]([C@H](O)[C@H](O)CO)OC(C(=O)O)=C[C@@H]1O	i	-7%

(cont.)
SMILES	VACV mCherry inh	Vaccinia Venus
CCCCN(CC)C(=O)c1cc2c(=O)n3cccc(C)c3nc2n1C	-17%	-10%
CCCN(CCC)C(=O)c1ccc2c(c1)N(CC)C(=O)c1ccccc1S2(=O)=O	i	-5%
COc1ccc(C2=NN(C(C)=O)C(c3cn(-c4ccccc4)nc3-c3cccs3)C2)cc1 (stereo not drawn)	-22%	-13%
C#CCOCCOCCOCCNc1nc(N2CCN(C(=O)Cn3cc(CC(C)O)nn3)CC2)nc(N2CCN(C(=O)[C@H]([C@@H](C)CC)n3cc(CCCCN)nn3)CC2)n1 (stereo partly drawn)	6%	22%
CC(Oc1ccc(F)cc1)C(=O)Nc1ccc(N2CCOCC2)cc1N1CCOCC1 (stereo not drawn)	-30%	-10%
O=C(NCCCn1ccnc1)c1cccc(Cl)c1	-14%	-6%
CC1CN(C(=O)Cc2ccc(-c3ccccc3)cc2)CC(C)O1 (stereo not drawn)	i	-12%
C[C@@H]1CN([C@H](C)CO)C(=O)CCCn2nncc2CO[C@H]1CN(C)S(=O)(=O)c1ccc2ccccc2c1	i	-15%
CCNC(=S)NNc1nc(N2CCCCC2)nc(N2CCOCC2)n1	i	-13%

Outcome played no part in choosing rows; about 0.86% have a hit in one of these screens.
